# HCMV NEC inh: inhibitors of HCMV UL50-UL53 interaction, biochemical, HTRF; inhibition, % (concentration not given with the values); hit rate 0.15% among 190,000; HCMV UL50-UL53 nuclear egress complex (human cytomegalovirus); normalized percent inhibition;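 active = both replicates at 50% or more, plus weaker picks with an unusually low signal ratio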;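 also: stock transfer was 100 nL into about 20 µL; 0% = negative control wells and 100% = wells with untagged competitor protein; inactives centre near -12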
# GIV-Gai inh: inhibitors of GIV peptide binding to Galpha-i3, primary screen, biochemical, fluorescence polarization, FITC-GIV GBA peptide, rat Galphai3. Guanine nucleotide-binding protein G(i) subunit alpha-3 (Rattus norvegicus), P08753. 90 min; active compounds read low; scaled: aluminum fluoride 0%, vehicle 100%. percent of control (FP), % (test concentration not listed). hit rate 0.42% among 210,000. AID 1224905, 2016;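 active = replicate mean at 85% of control or lower, very high polarization wells dropped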;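 also: lower values mean more displacement of the GIV peptide from Galpha-i3; wells of about 15 µL received 100 nL stock; the first replicate is given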
# Target sequence (P08753 whole entry, looked up): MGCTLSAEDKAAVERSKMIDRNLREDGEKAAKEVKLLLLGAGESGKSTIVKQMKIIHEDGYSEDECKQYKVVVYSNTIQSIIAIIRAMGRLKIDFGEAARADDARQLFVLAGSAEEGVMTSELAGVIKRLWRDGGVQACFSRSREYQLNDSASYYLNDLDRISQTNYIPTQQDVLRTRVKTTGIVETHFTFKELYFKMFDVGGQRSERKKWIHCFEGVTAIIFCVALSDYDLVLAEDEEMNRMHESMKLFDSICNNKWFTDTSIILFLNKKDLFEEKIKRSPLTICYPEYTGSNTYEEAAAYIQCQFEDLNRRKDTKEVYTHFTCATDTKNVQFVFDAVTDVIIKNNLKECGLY
# Sa growth inh: S. aureus growth inhibition at 42 and 30 °C, primary screen, LtaS inhibitor project, RN4220, two temperatures | relative growth, % (concentration not given with the values) | AID 720641, 2013 | hit rate 0.53% among 170,000 | OD600, 20 h, 42 °C; active compounds read low;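 active = growth at 42 °C up to 50% and 20 or more points under that at 30 °C, or under 10% at both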;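 also: 300 nL library stock went into each well; scaled to the means of positive and negative controls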
# Sa growth inh second temp: further read-out of Sa growth inh, marked with its call; relative growth, %; measured here: growth at 30 °C;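 optical density after 20 h as mean of two plates; 100% = untreated growth and lower means inhibition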
# * hit, by the source's call; nt = not tested or not shown.
SMILES,HCMV NEC inh,GIV-Gai inh,Sa growth inh,Sa growth inh second temp
Cc1ccc(-c2nnc(Nc3cccc(C(F)(F)F)c3)c3ccccc23)cc1S(=O)(=O)N1CCOCC1,nt,97.8,103.0,99.3
CCOC(=O)C1=CN(C)C=C(C(=O)OCC)C1c1ccc(C)c(Br)c1,-10.2,105.4,127.7,101.5
COc1ccc(C(=O)n2cnnc2N)cc1,5.5,100.7,79.1,92.8
CCc1ccc(NC(=O)Cn2c(=O)n(CCC(=O)NCc3ccco3)c(=O)c3ccccc32)cc1,-16.6,100.4,103.8,87.6
COc1ccccc1NC(=O)NCCN1CCN(c2cccc(Cl)c2)CC1,-2.5,104.4,105.0,88.2
C=CCSc1nc2sc3c(c2c(=O)n1-c1ccc(OC)cc1)CC(C)(C)OC3,19.3,108.2,nt,nt
COc1cccc(Cn2ncc3ccc(C(=O)NCc4cccc(Cl)c4)cc32)c1,-18.0,107.5,nt,nt
CCOCCOC(=O)C1=C(C)NC2=C(C(=O)CC(c3ccccc3)C2)C1c1cc2c(cc1Cl)OCO2 (stereo not given),-22.9,104.4,nt,nt
COc1ccc(-n2c(SCC(=O)/C(C#N)=C(\C)N)nc3ccccc3c2=O)cc1OC,-5.0,nt,98.4,87.5
CCn1c(=O)cc(SCC(=O)Nc2ccc(C)c(F)c2)c2ccccc21,-46.8,101.3,98.3,85.8
CCCCn1cnc2cc(NCc3cccc(OC)c3OC)ccc21,-1.5,100.6,93.9,72.2
Cc1cccc(C(=O)Nc2ccc(OCc3cc(=O)n4[nH]cnc4n3)cc2)c1,-4.2,113.0,nt,nt
Cn1ncc2c(O/N=C(\N)c3ccc(C(F)(F)F)cc3)ncnc21,-23.3,100.6,92.8,72.7
Cc1ccc(C2C=C(c3ccc(C(C)C)cc3)Nc3ncnn32)cc1 (stereo not given),nt,99.7,106.6,90.2
CSc1nnc(SC(C)C(=O)Nc2c(C)cccc2C(C)C)n1N (stereo not given),-3.0,nt,101.1,93.0
O=C(NCCCN1CCCC1)c1noc2c1CCCCC2,-36.4,99.8,90.6,91.6
CCN1CCN(c2nc(C)nc3c2sc(=S)n3C)CC1,-0.9,100.8,80.5,90.4
Cc1ccc(NC(=O)c2nccnc2C(=O)O)cc1,nt,99.8,110.5,92.7
CN1Cc2cc(CN3C(=O)c4ccccc4C3=O)ccc2NC1=O,-1.3,nt,101.6,92.8
CCOC(=O)c1ccc(-c2coc3cc(O)cc(O)c3c2=O)o1,-8.2,nt,114.9,89.5
O=C(c1cc(-c2ccco2)on1)N1CCCCC1,-10.8,99.8,103.5,83.7
FC(F)(F)c1cc(-c2nnc(N3CCCC3)o2)cc(C(F)(F)F)c1,-9.7,99.9,101.8,91.2
O=C(CN1C(=O)C2C3C=CC(C3)C2C1=O)NCc1ccccc1 (stereo not given),3.2,nt,114.5,94.8
CN(Cc1n[nH]c(=S)n1C)S(=O)(=O)c1ccccc1,4.0,102.1,96.8,96.4
O=C1Oc2ccccc2C2c3sc(=O)[nH]c3SC(c3cccs3)C12 (stereo not given),1.1,96.0,nt,nt
Cc1ccc(/C=C/C(=O)O)c(Br)c1,-10.1,nt,103.7,86.3
O=C(O)CCC(=O)N1N=C(c2cccs2)CC1c1cn(-c2ccccc2)nc1-c1ccccc1 (stereo not given),-22.8,107.1,nt,nt
Cc1nn(CC(=O)NCc2cccnc2)c(=O)c2ccccc12,7.5,99.0,101.0,83.0
CCOc1ccc2nc(NC(=O)CC)sc2c1,-18.7,106.9,nt,nt
O=C(NCc1ccc(Cl)cc1)c1ccc(CS(=O)c2cccc(Cl)c2)o1 (stereo not given),-6.2,108.3,95.4,74.5
O=C(Cn1nnc2ccccc2c1=O)c1ccccc1,-86.4,nt,104.3,90.2
O=C(Nc1nc2ccccc2n1Cc1ccccc1)C1CCCCC1,-3.6,100.8,nt,nt
COC(=O)c1ccccc1NC(=O)c1cccs1,nt,99.6,100.3,78.2
CN(C)C(=S)Nc1cccc2ccccc12,-36.8,104.4,93.1,86.6
CCOC(=O)Cn1nc(NC(=O)c2ccc(C(=O)OC)cc2)cc1C,-13.1,107.3,101.5,80.7
O=S1(=O)CCC(NC(=S)SCCOc2ccccc2OCCO)C1 (stereo not given),-11.7,99.7,92.9,71.6
CCc1ccc(NC(=O)CN(c2ccc(C)cc2)S(=O)(=O)c2c(C)nn(C)c2C)cc1,-7.9,107.4,102.1,78.4
OCc1ccccc1CNc1cccc2ccccc12,12.9,nt,47.0,25.1
COc1ccc(OC)c(NC(=O)CS(=O)(=O)Cc2nc(-c3ccc(C)cc3)oc2C)c1,-28.2,107.1,100.4,86.6
Cc1cc(-c2ccc(C(C)C)c(S(=O)(=O)NCCN3CCC(C)CC3)c2)on1,-21.9,102.1,96.5,74.2

# Part of the list above, reformatted.
# Results follow in this order: HCMV NEC inh | GIV-Gai inh | Sa growth inh | Sa growth inh second temp
Cn1ncc2c(O/N=C(\N)c3ccc(C(F)(F)F)cc3)ncnc21
  -23.3 | 100.6 | 92.8 | 72.7
Cc1ccc(C2C=C(c3ccc(C(C)C)cc3)Nc3ncnn32)cc1 (stereo not given)
  nt | 99.7 | 106.6 | 90.2
CSc1nnc(SC(C)C(=O)Nc2c(C)cccc2C(C)C)n1N (stereo not given)
  -3.0 | nt | 101.1 | 93.0
O=C(NCCCN1CCCC1)c1noc2c1CCCCC2
  -36.4 | 99.8 | 90.6 | 91.6
CCN1CCN(c2nc(C)nc3c2sc(=S)n3C)CC1
  -0.9 | 100.8 | 80.5 | 90.4
Cc1ccc(NC(=O)c2nccnc2C(=O)O)cc1
  nt | 99.8 | 110.5 | 92.7
CN1Cc2cc(CN3C(=O)c4ccccc4C3=O)ccc2NC1=O
  -1.3 | nt | 101.6 | 92.8
CCOC(=O)c1ccc(-c2coc3cc(O)cc(O)c3c2=O)o1
  -8.2 | nt | 114.9 | 89.5
O=C(c1cc(-c2ccco2)on1)N1CCCCC1
  -10.8 | 99.8 | 103.5 | 83.7
FC(F)(F)c1cc(-c2nnc(N3CCCC3)o2)cc(C(F)(F)F)c1
  -9.7 | 99.9 | 101.8 | 91.2
O=C(CN1C(=O)C2C3C=CC(C3)C2C1=O)NCc1ccccc1 (stereo not given)
  3.2 | nt | 114.5 | 94.8
CN(Cc1n[nH]c(=S)n1C)S(=O)(=O)c1ccccc1
  4.0 | 102.1 | 96.8 | 96.4
O=C1Oc2ccccc2C2c3sc(=O)[nH]c3SC(c3cccs3)C12 (stereo not given)
  1.1 | 96.0 | nt | nt
Cc1ccc(/C=C/C(=O)O)c(Br)c1
  -10.1 | nt | 103.7 | 86.3
O=C(O)CCC(=O)N1N=C(c2cccs2)CC1c1cn(-c2ccccc2)nc1-c1ccccc1 (stereo not given)
  -22.8 | 107.1 | nt | nt
Cc1nn(CC(=O)NCc2cccnc2)c(=O)c2ccccc12
  7.5 | 99.0 | 101.0 | 83.0
CCOc1ccc2nc(NC(=O)CC)sc2c1
  -18.7 | 106.9 | nt | nt
O=C(NCc1ccc(Cl)cc1)c1ccc(CS(=O)c2cccc(Cl)c2)o1 (stereo not given)
  -6.2 | 108.3 | 95.4 | 74.5
O=C(Cn1nnc2ccccc2c1=O)c1ccccc1
  -86.4 | nt | 104.3 | 90.2
O=C(Nc1nc2ccccc2n1Cc1ccccc1)C1CCCCC1
  -3.6 | 100.8 | nt | nt
COC(=O)c1ccccc1NC(=O)c1cccs1
  nt | 99.6 | 100.3 | 78.2
CN(C)C(=S)Nc1cccc2ccccc12
  -36.8 | 104.4 | 93.1 | 86.6

# Following part:
SMILES,HCMV NEC inh,GIV-Gai inh,Sa growth inh,Sa growth inh second temp
O=C(Nc1cccc(-c2nc3ccccc3[nH]2)c1)c1ccccc1,-11.2,nt,90.2,74.3
COc1cccc(-c2nc3ccccc3c(=O)n2NC(=O)Cn2nc([N+](=O)[O-])c(Cl)c2C)c1,-45.6,107.4,nt,nt
Fc1ccc(CSc2nc(N3CCOCC3)nc(N3CCOCC3)n2)cc1,nt,100.5,88.5,76.5
Cc1cc2nc(CSc3nnc(-c4ccc(F)cc4)o3)cc(=O)n2o1,-27.7,96.4,nt,nt
CCn1c(=N)n(CCOc2ccc(C)cc2)c2ccccc21,nt,106.0,118.4,79.7
CCCc1nn2c(=O)cc(COc3ccc(NC(=O)C(C)C)cc3)nc2s1,-9.1,103.0,95.1,95.1
CSCCC(NS(=O)(=O)c1ccc2c(c1)oc(=O)n2C)C(=O)N1CCN(c2cc(C)ccc2C)CC1 (stereo not given),nt,98.6,118.6,91.6
CCN(CC)CCNC(=O)CN1C(=O)CSc2ccc(S(=O)(=O)N3CCOCC3)cc21,nt,105.4,115.0,87.6
CCOC(=O)C1CCN(C(=O)CCCc2cn(Cc3ccc(C)cc3)c3ccccc23)CC1,-8.5,102.0,nt,nt
Cn1c(=O)n(C2CCCCC2)c(=O)c2ccccc21,7.8,106.0,98.2,92.3
CCn1c(=O)cc(OCC(=O)O)c2ccccc21,-10.7,97.5,95.9,89.4
Cc1nn(CCCC(=O)N2CCN(c3ccccn3)CC2)c(=O)c2cc3sccc3n12,-24.0,96.8,nt,nt
O=C(CN1CCN(C(=O)c2cccnc2Sc2ccc(Cl)cc2)CC1)N1CCCC1,-5.4,nt,97.2,87.4
O=C(CSc1nnc2[nH]c(=O)ccn12)NCc1ccc(F)cc1,-38.6,101.6,87.8,83.6
C=CCNC(=O)c1ccc(COc2ccccc2Cl)o1,nt,102.5,106.7,79.2
O=C(O)c1cc(N2CCN(c3ccccn3)CC2)ccc1NC(=O)C1CCCC1,-22.0,99.9,nt,nt
Cc1ccc(C)c(NC(=O)N2CCC(C)(C(=O)NCc3ccc4c(c3)OCO4)CC2)c1,-0.7,99.2,nt,nt
Nc1nnc(SCC(=O)NC2CCCCC2)s1,0.6,100.2,108.6,92.6
Cc1sc2ncnc(NC3CCCCC3)c2c1S(=O)(=O)N1CCCCC1,-15.3,103.3,nt,nt
O=C(NCCc1ccccc1)c1cc2sccc2n1Cc1ccc(F)cc1,1.6,98.1,108.9,79.3
CCCCN1C(=O)c2cc(C(=O)NCCC3=CCCCC3)nn2CC1(C)C(=O)NC1CCCC1 (stereo not given),0.4,99.8,nt,nt
CC(=O)c1ccc(N2C(=O)N(Cc3cc(C)ccc3C)c3ccccc3S2(=O)=O)cc1,nt,102.6,122.7,83.4
Cc1ccc(NC(=O)c2cccc3c2C(=O)N(Cc2cccnc2)C3)cc1F,4.6,106.7,99.7,92.8
CCCN(CCC)C(=O)c1cccc2c1-c1ccccc1C2=O,-65.3,102.9,101.5,89.6
Cc1ccccc1NC(=O)CSc1nc(-c2ccccc2C)nc2cc(=O)[nH]n12,nt,101.3,82.3,78.6
CCCCS(=O)(=O)NC1=NCN(C2CCN(Cc3ccccc3)CC2)CN1,nt,102.7,103.9,87.7
Clc1ccc(-c2noc3ncnc(N4CCC(Cc5ccccc5)CC4)c23)cc1,-33.5,93.4,nt,nt
COc1ccc2[nH]c(=O)cc(O)c2c1,-8.6,100.8,108.0,89.6
CCc1nn(Cc2cccc(C)c2)c(=O)c2cc3cc(C)ccc3n12,-0.1,107.8,96.0,92.2
CC(C)(S)P(=O)(O)c1ccccc1,0.9,94.2,103.7,85.7
O=S(=O)(Cc1ccccc1Cl)N1CCCCC1,-11.3,100.5,110.0,88.5
CCN(CC)S(=O)(=O)c1cc(-c2ccc(=O)n(C(C)C(=O)Nc3cccc(C)c3C)n2)ccc1C (stereo not given),-29.1,99.4,nt,nt
CC(=O)Oc1cccc2cc(-c3nc(-c4ccc(F)cc4)no3)c(=O)oc12,-62.6,106.1,118.2,81.7
CCc1c(C)nc2nc(Cc3cccc(F)c3)[nH]n2c1=O,5.8,100.9,nt,nt
CCNC(=O)CSc1nnc(-c2cc(OC)c(OC)c(OC)c2)o1,-8.1,nt,90.1,87.2
CCN(C(=O)c1oc2ccccc2c1C)c1ccccc1,-38.2,nt,99.2,94.2
O=C(CSc1nc(-c2ccccc2)c(-c2ccccc2)o1)NC1CCS(=O)(=O)C1 (stereo not given),-16.4,nt,100.2,99.4
CC(C)(C)OC1CC(C(=O)O)N(C(=O)OCc2ccccc2)C1 (stereo not given),-24.7,102.2,92.8,90.7
O=C(CN1CCC2(CC1)N=C(c1ccccc1)C(=O)N2)Nc1ccc(F)cc1F,-17.9,103.5,102.4,91.5

# Screening data: PubChem, ICCB-Longwood Screening Facility, Harvard Medical School
